gsp agonist = activates gsp, the McCune-Albright syndrome mutation; hit rate 0.13% among 340,000; Potency, µM (series often up to 76.9 µM), without a hit: at the top dose activation (cAMP increase), hits mostly activators; AID 624287; gsp mutant cells, cAMP HTRF, 30 min; control for the full effect not named in the record; active = well fitted activation curve with a large enough effect; inconclusive = small, poorly fitted or top-dose-only effect, or another doubt; inactive = no such curve, though single readings can be large or run the other way; cell line not stated here;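 also: phosphodiesterase inhibitor Ro 20-1724 added with compounds to block cAMP breakdown; potency is read from the fitted curve at half-maximal effect; nearly all actives have a fitted effect of over 60% in size; about a fifth of the inactives were tested at one dose only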
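Cells in DMEM/10% FBS with G418 were pretreated with compounds in DMSO plus […] (300 uM stock) for 30 min at 37C. cAMP was measured by HTRF (cAMP-d2 plus anti-cAMP antibody-K) after 30 min at room temperature.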
TRPML1 ag = activates the human TRPML1 channel; Q9GZU1; TRPML1-expressing cells, Ca2+ dye fluorescence, FDSS; host cell line not named in the record; reference of the full effect not given here; activation, % (test concentration not listed); hit rate 0.12% among 410,000; AID 624414; in the data active = activation above about 50%; inconclusive = about 30% to 50%; inactive = below about 30%; also: 0% is about no effect; the text of the record puts the active cut at 80%
Target sequence (Q9GZU1 whole entry, looked up): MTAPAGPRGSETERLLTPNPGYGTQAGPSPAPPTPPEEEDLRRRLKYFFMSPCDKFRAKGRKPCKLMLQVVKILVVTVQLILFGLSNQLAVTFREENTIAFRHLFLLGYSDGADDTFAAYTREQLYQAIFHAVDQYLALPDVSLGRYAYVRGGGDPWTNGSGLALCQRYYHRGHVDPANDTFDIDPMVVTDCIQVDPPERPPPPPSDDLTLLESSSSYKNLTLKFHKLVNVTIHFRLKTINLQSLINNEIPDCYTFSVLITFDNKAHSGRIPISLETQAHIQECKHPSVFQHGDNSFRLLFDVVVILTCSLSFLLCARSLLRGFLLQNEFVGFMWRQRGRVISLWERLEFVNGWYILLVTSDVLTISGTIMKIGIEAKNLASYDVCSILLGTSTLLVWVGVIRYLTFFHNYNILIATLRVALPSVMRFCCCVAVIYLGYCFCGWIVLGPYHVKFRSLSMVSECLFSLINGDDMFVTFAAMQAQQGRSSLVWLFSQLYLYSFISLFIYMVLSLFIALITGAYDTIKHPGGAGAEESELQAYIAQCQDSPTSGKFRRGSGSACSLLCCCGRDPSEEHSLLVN
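In this qHTS format, compounds were pin-transferred onto Ca8-dye-loaded TRPML1-DL cells induced with Tet overnight, and intracellular Ca2+ fluorescence was recorded kinetically for 110 s after a 10 s baseline. A subsequent 4uM final 54-4 (EC80) addition followed by a second 110 s read served as the antagonist phase.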
ClpP mod = qHTS Assay for Activators of ClpP. purified B. subtilis ClpP, FRET peptide cleavage, 20 min. Potency, µM (top dose mostly 57.5 µM), for inactives: at the top dose activity change, negative = active. hit rate 1.9% among 340,000; active = well fitted falling curve with a large enough effect; inconclusive = small, poorly fitted or top-dose-only effect; inactive = no such curve, though single readings can be large or run the other way; also: potency is read from the fitted curve at half-maximal effect; the source files actives as falling curves though it sought activators and does not explain the sign; nearly all actives have a fitted effect of over 65% in size; many hits overshoot -100%
Target sequence (P80244 whole entry, looked up): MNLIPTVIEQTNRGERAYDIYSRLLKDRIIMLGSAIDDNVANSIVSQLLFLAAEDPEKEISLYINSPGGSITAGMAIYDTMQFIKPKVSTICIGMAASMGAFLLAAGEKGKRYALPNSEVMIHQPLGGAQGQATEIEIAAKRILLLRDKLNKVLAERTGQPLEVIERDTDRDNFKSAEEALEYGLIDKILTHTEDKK
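FRET quenching reversal measured ClpP activation: 10 microg/mL B. subtilis ClpP at pH 8 with the FRET-FV decapeptide, read at 430 nm after 320 nm excitation. The 20-min minus 0-min signal was scaled between DMSO/no-enzyme wells and ADEP (5.8 microM final).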
gsp antagonist = antagonists of gsp mutant (McCune-Albright syndrome). gsp-mutant cells, cAMP HTRF, 30 min; control for the full effect not named in the record. Potency, µM (series often up to 76.9 µM), for the others: at the top dose activity change, negative = inhibition, most hits filed as inhibitors. hit rate 0.4% among 340,000. AID 624288; active = falling curve of any shape with a large fitted effect; inconclusive = falling curve, mostly with a smaller effect; inactive = flat or rising curve; cell line not stated here;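 also: intracellular cAMP measured with PDE inhibitor Ro 20-1724 present during compound exposure; potency is read from the fitted curve at half-maximal effect; % is scaled to controls: 0 for no effect and ±100 for the full control effect; nearly all actives have a fitted effect of over 65% in size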
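Cells in G418 medium, seeded 16-24 h, 37C; buffer exchange to DPBS + 1 mM CaCl2, 0.5 mM MgCl2, 0.05% BSA; cpds in DMSO + […] (300 uM stock), 30 min 37C; HTRF cAMP detection.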
Menin-MLL FL inh = inhibitors of human menin-MLL interaction, wild-type MLL peptide. 290,000 tested, under 10 active. Fluorescence polarization, fluorescein-MLL peptide displacement from menin. FP activity change, % at 61.4 µM; inconclusive = falling polarisation curve, or a change in total fluorescence; inactive = total fluorescence flat and polarisation flat or rising; no compound was filed as active; the % refers to the polarisation; negative = inhibition;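 also: % of control where 0% means no effect; inhibitors lower the polarisation; unlabelled MLL peptide was the positive control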
TRPML1 inh = inhibitors of human TRPML1 channel; activity change, negative = inhibition, % (concentration not given with the values); hit rate 0.02% among 390,000; Q9GZU1; TRPML1-inducible cells, Ca2+ dye fluorescence, FDSS; stronger effect = lower value; inhibition of EC80 agonist-evoked calcium signal; in the data active means activity change below about -50%; inconclusive means about -30% to -50%; inactive means above about -30%;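 also: stimulus is agonist 54-4 at its EC80 concentration; % is scaled to controls: 0 for no effect and ±100 for the full control effect; compound concentration not given in the record; the text of the record puts the active cut at -80%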
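Calcium fluorescence in TRPML1-DL cells induced overnight with Tet: a 110 s read after compound pin addition, then a 110 s antagonist read after challenge with 54-4 at 4 uM final (EC80).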
The depositor's hits bear a star; ? = inconclusive; . = not tested or not shown; & = joins results of further samples; [ ] = dose if it differs, or a comment. This is a random part of the collection; about 2.1% have a hit in one of these screens.

molecule | gsp agonist | TRPML1 ag | ClpP mod | gsp antagonist | Menin-MLL FL inh | TRPML1 inh
Cc1ccc(S(=O)(=O)CCC(=O)OC(C)C(=O)N2CCc3ccccc32)cc1 (stereo not drawn) | 10.5% | 0.8 | -1.9% | -7.5% | . | 13.9
CC(=O)N1CCCC1c1nc2ccccc2n1Cc1ccccc1F (stereo not drawn) | . | -1.1 | -2.0% | . | . | 10.1
CCOC(=O)c1sc2nc(CN3CCN(c4cccc(C(F)(F)F)c4)CC3)[nH]c(=O)c2c1C | -1.4%[15.4 µM] | -0.3 | . | 0.0% | 22.3 | 5.4
Cc1ccc(Sc2c(C)nn(C(=O)c3ccc(Cl)cc3)c2C)cc1 | . | 1.7 | -15.6% | . | . | -6.0
Cc1c(NC(=O)COC(=O)C23CC4CC(CC(O)(C4)C2)C3)c(=O)n(-c2ccccc2)n1C | -16.9%[15.4 µM] | -0.8 | . | 6.7% | -1.8 | 5.3
CCS(=O)(=O)N1Cc2ccccc2CC1C(=O)Nc1nc2ccccc2[nH]1 (stereo not drawn) | 0.1% | 1.6 | -3.1% | 4.5% | 2.4 | -3.9
CCN1CCN(c2ncc3c(n2)CC(c2ccc(OC)c(OC)c2)CC3=O)CC1 (stereo not drawn) | 12.4% | -0.2 | 1.2% | 9.0% | -5.0 | 11.3
COCc1cc(C)nc2sc3c(=O)n(Cc4ccco4)nnc3c12 | -37.4%[inhibitor] | 0.3 | -2.0% | 0.6% | -2.3 | 4.1
CCOC(=O)NC(Nc1nc2ccccc2s1)(C(=O)OCC)C(F)(F)F (stereo not drawn) | 13.3% | 0.7 | 2.1% | -3.8% | 3.4 | 1.7
O=C1C2CCCCN2C(=O)N1CCCCN1CCN(c2ccc([N+](=O)[O-])cc2)CC1 (stereo not drawn) | -5.0% | -0.3 | -1.0% | -7.0% | 5.1 | 3.4
COc1cc(-c2nnc3n(CCc4ccccc4)c(=O)c4ccccc4n23)cc(OC)c1OC | 23.2% | 1.1 | -2.7% | -11.6% | 11.1 | 1.0
COc1ccccc1/C=C/C(=O)OCc1nc2ccccc2c(=O)[nH]1 | -4.3%[15.4 µM] | -0.8 | -18.4% | -20.3% | 5.9 | 38.3
Cc1cccc(C(=O)Oc2coc(CSc3nnc(NC(=O)C4CC4)s3)cc2=O)c1 | -18.9% | 0.0 | -0.9% | 0.9% | 2.2 | 11.1
CCOc1cccc(CNCCCSc2nnnn2C)c1 | . | -1.0 | -1.1% | . | . | -5.4
Cc1cccc(-n2cnc(C(=O)Nc3cccnc3)c2)n1 | 2.2% | -0.7 | 2.0% | 3.3% | 5.5 | 0.5
CCN1CCN(CCCNC(=O)c2cnn(-c3ccccc3Cl)c2C2CCN(C(=O)OC(C)(C)C)CC2)CC1 | . | 5.3 | -3.2% | . | . | -4.1
CC(C)CN1C(=O)c2ccc(C(=O)Nc3ccncc3)cc2C1=O | -65.2%[inhibitor] | 1.5 | -2.8% | 28.2µM* | -2.1 | -1.2
O=C(NCc1ccco1)c1ccc2c(c1)CCO2 | -2.2%[15.4 µM] | 0.1 | . | 6.9% | 17.2 | 5.8
O=C(Nc1ccccc1-c1nnc(SCc2ccccc2)o1)c1ccccc1 | 25.4% | -0.2 | 28.2µM* | -4.4% | 5.2 | -8.2
COc1ccc2ncccc2c1Cc1c(OC)ccc2ncccc12 | -13.6% | 0.9 | . | -5.0% | . | -9.7
CC1CCCN(CCCNS(=O)(=O)c2cc(Br)cc3c2N(C(=O)C2CC2)CC3)C1 (stereo not drawn) | -15.3%[15.4 µM] | -1.6 | 0.0% | -11.7% | -1.5 | -8.5
CNC(=O)COC(=O)c1cc2c(s1)CCCC2 | -2.3%[15.4 µM] | -0.5 | . | 16.2% | 0.4 | -3.7
Cc1nc2c3cc(F)ccc3n(CCN3CCCCC3)c2s1 | 2.1% | -0.6 | -0.6% | -10.5% | -1.3 | -5.3
CCN(Cc1ccccc1)S(=O)(=O)c1ccc2oc(C(=O)O)c(C)c2c1 | -57.1%[inhibitor] | 3.1 | 0.6% | 6.9% | -0.6 | -14.1
CCOC(=O)C1(Cc2ccccc2C(F)(F)F)CCN(C(=O)c2cc(C)n(C)n2)CC1 | -5.5%[15.4 µM] | -1.0 | . | -3.6% | 5.7 | -10.0
COc1cccc(-c2cc(C(=O)Nc3nc4ccccc4s3)c3ccccc3n2)c1 | 1.8% | -0.4 | -18.0% | -7.0% | 3.9 | -15.0
Cc1c2cnn(CC(=O)NCc3ccc(Cl)cc3)c(=O)c2c(C)n1Cc1ccc(F)cc1 | . | 0.9 | -9.3% | . | . | 22.6
Cc1ccc(CSc2ncnc3ccccc23)cc1 | 10.3% | 3.8 | . | 5.1% | 1.4 | -1.6
CCN1C(=O)N(c2ccc(C(C)=O)cc2)S(=O)(=O)c2ccccc21 | -24.9% | 1.5&-1.3 | 0.2%&1.4% | 5.5% | 11.6 | 5.2&1.5
O=c1oc2ccccc2cc1-c1csc(Cc2nc(-c3ccc(Cl)cc3)cs2)n1 | -3.7% | -0.3 | 2.6% | -1.6% | 3.9 | 5.9
Cc1cccc(NS(=O)(=O)c2cc3c4c(c2)CCN4C(=O)CC3)c1C | 13.1% | -0.4 | -1.4% | -2.6% | . | 48.8
Cc1cccc(NC(=O)NC2CC3CCC(C2)N3Cc2ccco2)c1 (stereo not drawn) | -7.2% | 0.4 | -0.6% | 6.0% | -3.3 | 10.3
COc1ccc2c(-c3ccccc3)cc(SCC(=O)N(C)C3CCS(=O)(=O)C3)nc2c1 (stereo not drawn) | 8.1% | 0.2 | -12.3% | 0.5% | 1.6 | 17.3
COc1cccc(C(=O)Nc2cc(C(F)(F)F)ccc2Cl)c1 | 17.1% | 2.0 | -2.3% | 2.1% | -4.8 | 62.6
Cc1ccc(N2CCN(C(=S)Nc3ccc(Cl)cc3)CC2)cc1 | ? | 0.0 | 0.3% | 7.6% | -2.0 | -0.5
COc1ccc(-c2[nH]ncc2C(=O)NCc2cccc(Cl)c2)cc1 | . | 0.7 | -2.3% | . | . | 3.8
O=C1Nc2ccccc2/C1=C\c1cccn1-c1ccc(OC(F)(F)F)cc1 | 0.5% | 2.6 | -2.7% | -11.7% | 0.4 | -6.2
Cn1c(N)c(C(=O)COC(=O)c2cc(-c3ccccc3)nc3ccccc23)c(=O)n(Cc2ccccc2)c1=O | . | 1.1 | -23.1% | -13.3% | ? | -11.5
COc1ccc(Cl)cc1NC(=O)COC(=O)C(CC(C)C)N1C(=O)C2CC=CCC2C1=O (stereo not drawn) | 2.1% | 12.4 | 4.6% | -15.1% | 0.2 | -5.8
CCn1c(SCc2ccccc2)nnc1-c1cccnc1 | 5.4%[15.4 µM] | -0.4 | . | 2.6% | 1.5 | 20.2
COc1ccc2c(Cl)c(C(=O)N/N=C/c3ccc4c(c3)OCO4)sc2c1 | 17.0% | 0.9 | -6.6% | 4.6% | 3.3 | -2.2
COc1cc(C(=O)Nc2ccc(Br)cc2C(=O)c2cc(OC)c(OC)c(OC)c2)cc(OC)c1OC | ? | 2.1 | 1.7% | 11.6% | 1.8 | 13.8
O=C1C2C3C=CC(O3)C2C(=O)N1N=C1CCCCC1 (stereo not drawn) | -10.2% | -0.6 | . | -13.0% | . | -2.0
Cc1ccc(C2=NN3C(=O)c4ccccc4C3C2)cc1 (stereo not drawn) | -10.8% | 1.4 | 0.1% | -16.3% | 5.7 | 10.0
NC(=O)c1oc2ccccc2c1NC(=O)Cc1ccccc1 | 2.4% | . | -20.9% | 1.1% | -2.6 | .
CCc1nc(SCC(=O)Nc2cccc3ccccc23)[nH]c(=O)c1C | 19.1% | 0.7 | . | 4.6% | -1.9 | -19.5
O=C(Nc1nccs1)C1CCCCN1S(=O)(=O)c1ccccc1 (stereo not drawn) | -27.2% | -0.6 | -1.9% | -3.7% | -0.7 | 0.7
CCCCCCCNC1=CC(=O)CC(c2ccco2)C1 (stereo not drawn) | 25.3% | 0.0 | 1.2% | 2.4% | 1.9 | 14.3
Cc1cc(C)c2c(=O)n(CC(=O)NCCCN3CCN(c4ccccc4F)CC3)sc2n1 | -62.1%[inhibitor] | 0.1 | -26.5% | -23.0% | 5.3 | -10.3
CCN1CCc2nc(NC(=O)c3ccc4c(c3)OCCO4)sc2C1 | ? | 2.4 | -3.3% | 13.3% | ? | 12.5
COc1ccc(CNC(=O)COC(=O)c2sccc2C)cc1OC | 18.9% | 2.2 | 0.2% | -12.9% | . | -0.1
O=C(Cn1nc2c(cc1=O)CCCC2)NCc1ccccc1 | . | 0.4 | -1.3% | . | . | 22.0
CC(Sc1nnc(Nc2ccccc2F)s1)C(=O)NC1CC1 (stereo not drawn) | -0.4% | 0.0 | 0.0% | 11.8% | . | 4.6
CC1CCCC(N2CCN(S(=O)(=O)c3ccccc3)CC2)C1 (stereo not drawn) | -5.7%[15.4 µM] | -0.2 | . | 15.3% | -1.5 | 4.7
Cc1ccc(C(=O)N2CCN(Cc3ccc4c(c3)OCO4)CC2)cc1S(=O)(=O)N1CCOCC1 | 5.2% | -0.7 | -4.9% | -12.7% | 4.9 | -0.1
CCc1nc2ccc(C(=O)Nc3cc(-c4ccccc4)ccc3OC)cn2c1N(C)CCCc1ccccc1 | . | -0.4 | -11.4% | . | . | 8.2
CC(C)(C)CC(=O)NC(=S)Nc1ccccc1[N+](=O)[O-] | 18.8% | 3.3 | -1.3% | 8.2% | -2.7 | 24.3
O=C(COC(=O)c1ccccc1C(=O)c1ccc(Cl)c([N+](=O)[O-])c1)NC1CC1 | -21.1% | 1.3 | 1.4% | -24.5% | -0.7 | 43.2
COc1cc(C(=O)Nc2nc(-c3ccc(F)cc3)cs2)ccc1OCC(=O)N1CCOCC1 | -8.3% | 1.8 | -19.4% | 35.5µM* | 5.2 | 3.0
CSCCC(=O)N1C(C)CCCC1C(=O)O (stereo not drawn) | 2.5% | -1.5 | 0.5% | 3.3% | 4.2 | 13.9
O=C(NCc1ccccn1)C1(C(F)(F)F)C/C(=C\CCO)CCCO1 (stereo not drawn) | 1.8% | -0.5&0.6 | -1.7% | 7.5% | -4.5 | 0.6&-1.9
Nc1ccn(Cc2ccccc2F)n1 | 0.2%[15.4 µM] | 0.1 | . | 2.2% | 1.2 | 48.4
NC(=O)c1ccsc1NC(=O)COC(=O)/C=C/c1ccccc1[N+](=O)[O-] | -4.6%[15.4 µM] | 0.7 | -3.9% | 1.2% | . | 41.1

Assay outcomes deposited in PubChem BioAssay by National Center for Advancing Translational Sciences (NCATS).
